Compound activity: PubChem, National Center for Advancing Translational Sciences (NCATS)
SmPrx2 inh = Schistosoma Mansoni Peroxiredoxins (Prx2); Schistosoma mansoni peroxiredoxin 2 (Prx2); S. mansoni Prx2 activity coupled to TGR/GSH (TGR is thioredoxin glutathione reductase), NADPH fluorescence loss, qHTS; some inactives read as strong as hits; Potency, µM; 65,000 compounds, 0.07% hits; AID 448, 2006; active means full or partial inhibition curve with a strong effect at the top dose; inconclusive means weaker partial or single-point curve; inactive means no accepted curve; note: series up to 57 µM; many of its hits are not listed in these tables
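Activity is read as the drop in NADPH fluorescence (365/450 nm), recorded every 30 sec for 8 min after H2O2 addition. Prx2 is coupled to TGR-driven NADPH oxidation through glutathione, in phosphate buffer pH 7.4.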
LT uptake inh = qHTS Assay for Anthrax Lethal Toxin Internalization | AID 912, 2007 | Potency, µM (highest dose often 40 µM), for the others: at the top dose activity change, negative = inhibition, most hits filed as inhibitors | Cells, anthrax lethal toxin internalization, FRET ratio (460/530) | 70,000 compounds, 0.67% hits; active = well fitted falling ratio curve with the 530 nm signal flat; inconclusive = other ratio curves, or a change in one channel alone; inactive = flat curves in the ratio and both channels; the % refers to the ratio; note: % is set by controls: 0 for no effect and ±100 for the full control effect; nearly all actives have a fitted effect of over 50% in size; tested in ME-180 cells; beta-lactamase reporter
Starred values were filed as active, the others as inactive; u = inconclusive; x = not tested or not shown; [ ] = remark or other dose. Potency is the fitted concentration of half-maximal effect.

molecule	SmPrx2 inh	LT uptake inh
CC1CCCC(NC(=O)c2ccc(CNc3c(N4CCCC4)c(=O)c3=O)cc2)C1C (centres undefined)	>57	10%
C=CCC1(c2ccccc2)Oc2ccc(C)cc2-c2nc3cc(Cl)c(Cl)cc3nc21 (centres undefined)	x	3%[8 µM]
COC(=O)c1ccccc1NC(=O)Cn1cnc2cc(C)c(C)cc21	>57	u
COc1cc(C(=O)NCc2ccco2)cc(OC)c1OC	>57	-1%
COc1ccc(C2OC(=O)CC2C(=O)NC2CCCCCC2)cc1OC (centres undefined)	>57	u
CC1(C)CC(=O)C(C=NCCc2ccc(S(N)(=O)=O)cc2)=C(O)C1	>57	0%
CC1S/C(=C(\C#N)C(N)=O)N(c2ccc(F)cc2)C1=O (centres undefined)	>57	x
CC(=O)c1cc2c(cc1NC(=O)CCc1ccccc1)OCO2	>57	-9%
Cn1c(=O)[nH]c(=O)c2c1nc(CN1CCN(c3cccc(Cl)c3)CC1)n2CCN1CCOCC1	>57	-2%
COC(=O)c1cc(NS(=O)(=O)c2ccc3c(c2)CCC(=O)N3)cc(C(=O)OC)c1	>57	12%
COc1ccc(C2c3sc(=O)[nH]c3SC3C(=O)N(c4ccccc4)C(=O)C32)cc1 (centres undefined)	>57	-16%
COCCn1nnnc1C(c1cc2cccc(C)c2[nH]c1=O)N1CCN(c2ccccc2F)CC1 (centres undefined)	>57	3%

Record cards, from the list above. Order of screens: SmPrx2 inh	LT uptake inh
COC(=O)c1ccccc1NC(=O)Cn1cnc2cc(C)c(C)cc21 is listed as >57	u
COc1cc(C(=O)NCc2ccco2)cc(OC)c1OC is listed as >57	-1%

The listing continues.
molecule	SmPrx2 inh	LT uptake inh
COC(=O)c1cc(OC)c(OC)cc1NC(=O)c1cnccn1	>57	-8%
COc1ccc(S(=O)(=O)N(C)c2ccc(C(=O)N3CCC(C(N)=O)CC3)cc2)cc1	>57	-5%
CN1CCN(c2ccc(Cl)cc2NS(=O)(=O)c2ccccc2Cl)CC1	>57	-29%
COCCOC(=O)c1c(C)n(C)c2ccc(OC(=O)c3cccs3)cc12	>57	x
Cc1c(C(=O)NCc2cccnc2)oc2ccc(S(=O)(=O)N3CCCCC3)cc12	>57	11%
Cc1cnc(C(=O)Nc2ccccc2-n2cccc2)cn1	>57	2%
Cc1ccccc1-n1nnnc1SCc1csc(-c2ccccc2)n1	>57	-27%
CCOc1ccccc1C1CC(c2ccccc2)Nc2nc(N)nn21 (centres undefined)	>57	-9%
O=C(CSc1nnc2scc(-c3ccccc3)n12)N1CCCc2ccccc21	>57	-5%
Cc1ccc(-c2nc(CSCC(=O)NCc3cccnc3)c(C)o2)cc1	>57	8%
N#Cc1cc2c(nc1SCC(=O)Nc1ccc(Cl)cc1)C1CCN2CC1	>57	-4%
COCc1nnc(SCC(=O)NCc2ccccc2)n1-c1ccccc1	>57	u
CCCCCCn1c(CN2CCN(C(=O)OCC)CC2)nc2c1c(=O)n(C)c(=O)n2C	>57	-10%
Cc1c(C(=O)O)oc2ccc(S(=O)(=O)NCCC3=CCCCC3)cc12	>57	-7%
CCOC(=O)c1c(C)c(C(=O)Nc2ccc3c(c2)OCO3)c(C)n1C	>57	-8%
COc1ccc(CC(=O)NCc2cccs2)cc1	>57	-2%
CN(C)S(=O)(=O)c1ccc(C(=O)Nc2nnc(Cc3ccccc3)s2)cc1	>57	-9%
O=C(c1ccc(NS(=O)(=O)c2cccs2)cc1)N1CCCCC1	>57	-17%
COc1cc2c(CCNC(C)=O)c[nH]c2cc1O	>57	-3%
CCN1CCCC1CNC(=O)Cn1cccc1C(=O)c1ccccc1C (centres undefined)	>57	-1%
COc1ccccc1NC(=O)COC(=O)CNC(=O)c1ccc(OC)c(OC)c1	>57	1%
Cc1cccc(Cn2c(N3CCCCC3C)nc3c2c(=O)[nH]c(=O)n3C)c1 (centres undefined)	>57	2%
O=C(CN(C(=O)CCC(=O)Nc1ccccn1)c1ccc2c(c1)OCCO2)NCCc1ccccc1	>57	-3%
COCCNC(=O)c1cc2c(-c3ccc(Cl)cc3)nn(C)c2s1	>57	-22%
COC(=O)c1[nH]c(C)c(/C(O)=C2\C(=O)C(=O)N(CCN(C)C)C2c2ccc(OC)cc2)c1C (centres undefined)	u	1%
Cc1cccc2cc(CN(Cc3nnnn3C3CCCC3)C3CCCCC3)c(=O)[nH]c12	>57	-11%
COc1cc(S(=O)(=O)NCC2CCCO2)c(OC)cc1Cl (centres undefined)	>57	u
O=C(NCCN1CCOCC1)c1cccs1	>57	2%
CNC(=O)c1nnc(Cc2ccc(F)cc2)o1	>57	-5%
CCOC(=O)c1sc(NC(=O)CSc2ncn[nH]2)c(C#N)c1C	>57	-1%
CCCn1cc(S(=O)(=O)CC(=O)Nc2ccc(OCC)cc2)c2ccccc21	>57	-3%
CCOC(=O)N1CCC(N2C(=O)c3ccccc3C2Nc2ccc3c(C)cc(=O)oc3c2)CC1 (centres undefined)	>57	u
CC(=O)NCCc1cc2cc(C)c(C)cc2[nH]c1=O	>57	6%
CCc1ccc(S(=O)(=O)c2n[nH]n3c2nc(=O)c2ccccc23)cc1	>57	4%
CCOC(=O)c1ccccc1NS(=O)(=O)c1ccc(S(=O)(=O)N2CCCC2)cc1	>57	-29%
N#Cc1nc(-c2ccco2)oc1N1CCCC1	>57	-7%

Further compounds
SMILES | SmPrx2 inh | LT uptake inh
O=C1CN(C(=O)c2ccccc2F)c2ccccc2N1 | >57 | -1%
COC(=O)c1c(NC(=O)CSc2nnc(-c3cccnc3)n2Cc2ccco2)sc(C)c1C | >57 | u
O=C(Cn1cnc2ccccc2c1=O)Nc1ccc2c(c1)CCC2 | >57 | -21%
O=C(c1cc2c(s1)-c1ccccc1OC2)N1CCN(c2ccccn2)CC1 | >57 | u
Cc1cc2cc(CN(Cc3ccc4c(c3)OCO4)C(=O)c3cnccn3)c3nnnn3c2cc1C | >57 | -5%
CCCn1[nH]cc(SC)c(=O)c1=O | >57 | -3%
O=C(CCS(=O)(=O)c1cccc2nonc12)NCCc1ccccc1 | x | 9%
O=C(Nc1sc2c(c1C(=O)NC1CCCCC1)CCC2)c1ccco1 | x | u
Cc1csc(NC(=O)c2nc(-c3ccccc3)n(-c3ccccc3)n2)n1 | >57 | 1%
COc1ccc(CCNC(=O)CN(c2ccccc2OC)S(C)(=O)=O)cc1OC | x | -2%
O/N=C(\Cc1cscn1)c1ccc(O)cc1O | >57 | 8%
Cc1csc(NC(=O)C2CCCCC2C(=O)O)n1 (centres undefined) | x | -4%
CCn1c(=O)c2cc(C(=O)NCc3cccs3)sc2c2ccccc21 | >57 | -15%
NC(=O)c1cn(-c2ccccc2)nc1-c1cccnc1 | >57 | 11%
O=C1NC2CCCCC2NC1CC(=O)N1CCN(c2ccccc2)CC1 (centres undefined) | >57 | 9%
O=[N+]([O-])c1ccccc1Nc1ccccc1 | x | -17%
Cc1cc(C)n2c(=S)[nH]nc2n1 | >57 | -15%
CCOc1cc(NS(=O)(=O)CC)c(OCC)cc1NC(=O)c1ccco1 | >57 | -1%
O=C1C2=CC[C@H]3C(=O)N(c4cccc(Oc5ccccc5)c4)C(=O)[C@@H]3[C@@H]2[C@H](O)[C@@H]2O[C@H]12 | x | u
O=C(Nc1ccc(Cl)cc1C(=O)Nc1ccncc1)c1ccco1 | >57 | -8%
OC(COc1ccc2ccccc2c1)Cn1ccnc1 (centres undefined) | >57 | -2%
CC(=O)OC1C(OC(C)=O)N(C(C)=O)C(=O)N1C(C)=O (centres undefined) | >57 | -12%
COc1cc(-c2n[nH]c(=O)o2)cc(OC)c1OC | x | 6%
CC(=O)COc1ccc2c3c(c(=O)oc2c1C)CCCCC3 | >57 | -11%
CCCCC(NC(C)=O)c1nc2ccccc2n1CCCC (centres undefined) | >57 | u
CCOC(=O)c1oc2cc(O)ccc2c(=O)c1-c1ccccc1OC | x | -2%
COc1ncc2ncc(=O)n(CCc3ccccc3)c2n1 | >57 | 7%
CCN1CCCC1CNC(=O)CSc1cc(=O)n(CC)c2ccccc12 (centres undefined) | >57 | -19%
Cn1nc(-c2ccc(Cl)cc2)c2cc(C(=O)N3CCN(c4ccccn4)CC3)sc21 | >57 | u
Cc1nc(SCn2nnc3ccccc3c2=O)c2c(C)c(C)sc2n1 | >57 | -6%
O=C(c1ccccc1)[C@@H]1O[C@H]1c1ccc(-c2ccccc2)cc1 | >57 | u
CC1(C)c2ccccc2N2CC(=O)NC21/C=C/c1ccco1 (centres undefined) | >57 | -26%
O=[N+]([O-])c1cccc(CCl)c1 | x | 2%
CCOc1ccc2nc(COC(=O)c3ccco3)c(C(C)=O)[n+]([O-])c2c1 | >57 | 8%
CN(C)CCCO[C@H]1[C@H]([C@H](O)CO)O[C@H]2OC(C)(C)O[C@@H]21 | >57 | 2%
O=C(CSc1nnc(-c2ccccc2Br)o1)N1CCN(C(=O)c2ccco2)CC1 | >57 | u
C[C@H](NC(=O)[C@@H]1C[C@H]1[C@@H](NC(=O)OCc1ccccc1)c1ccccc1)c1ccccc1 | x | 3%
CC(=O)CN1Cc2ccccc2/C1=N\C(=O)Nc1ccccc1 | >57 | 9%
Cc1onc(-c2ccccc2Cl)c1C(=O)Nc1ccc(S(=O)(=O)N2CCCC2)cc1 | >57 | u
CCc1nnc(NC(=O)CSc2nc3c(c(=O)n2CC)SC(C)C3)s1 (centres undefined) | >57 | 27%
COc1ccc2[nH]c(C)c(CN3CCC(C)CC3)c(=O)c2c1 | x | -6%
O=C(O)c1ccc2cc(-c3ccc(O)c(C45CC6CC(CC(C6)C4)C5)c3)ccc2c1 | x | 10µM*
CCCn1c(SCC(=O)Nc2c(C)cccc2CC)nnc1C(C)C | >57 | 5%
COc1ccc(-c2nnc(SCC(=O)NC(C)c3ccccc3)o2)cc1OC (centres undefined) | x | -3%
O=C(c1ccccc1C(=O)N1CCN(c2ccccc2)CC1)N1CCN(c2ccccc2)CC1 | >57 | u
C=C(C)[C@H]1CC[C@]2(CO)CC[C@]3(C)[C@@H](CC[C@H]4[C@@]5(C)CC[C@@H](O)C(C)(C)[C@@H]5CC[C@@]43C)[C@H]12 | >11 | -3%[3.58 µM]
Cn1c(SCC2CCCO2)nnc1-c1ccncc1 (centres undefined) | >57 | -5%
COCCn1c(=O)c(-c2ccc(F)c(F)c2)nc2cncnc21 | >11 | u
Cc1ccc(S(=O)(=O)c2cc3c(=O)n4ccccc4nc3n(Cc3ccco3)c2=N)cc1C | >57 | u
CN(C)C[C@H]1CCC[C@@H](CN(C)C)C1=O | >57 | 0%[8 µM]
CC(=O)c1cccc(NS(=O)(=O)c2ccc3c(c2)oc(=O)n3C)c1 | >57 | -9%
O=C(O)COc1c(F)c(F)c(C(F)(F)F)c(F)c1F | x | -13%
O=C1CCCc2c1cc(C(=O)Nc1ccc(Br)cn1)c(=O)n2-c1ccccc1 | >57 | 6%
COc1cc(NCCCC(C)N)c2ncccc2c1 (centres undefined) | >57 | u
CCCCOC(=O)Nc1ccccc1C(=O)N1CCCC1 | x | 10%
COC(=O)C1C(=O)c2c([nH]c(C(=O)OC3CCCCC3)c2C)CC1C (centres undefined) | >57 | 2%
CCOC(=O)CCCn1nc(C)n2c(cc3sccc32)c1=O | >57 | u
COc1ccc(NC(=O)C2CCCN(S(=O)(=O)c3cccnc3)C2)cc1 (centres undefined) | >57 | -11%
CC1CC(C)CN(Cc2nc(N)nc(Nc3ccc4ccccc4c3)n2)C1 (centres undefined) | >57 | -20%
COc1ccc(CCNS(=O)(=O)c2ccc(F)cc2)cc1OC | >57 | -3%

Next records follow:
SMILES | SmPrx2 inh | LT uptake inh
CC(C)(C)C(=O)Nc1ccccc1C(=O)NCc1ccco1 | x | 1%
O=C(O)C1CCCN1S(=O)(=O)c1ccc(Br)s1 (centres undefined) (tested in a mixture with another compound) | >57 | -10%
CC(=O)N1CCN(c2ccc(NC(=O)c3ccccc3Br)cc2Cl)CC1 | >57 | 3%
CC(CN1CCCCC1)OC(=O)c1cc2ccccc2o1 (centres undefined) | >57 | -1%
CCOc1ccc(-c2nc(-c3ccc(OC)cc3)no2)cc1OCC | >57 | -8%
CN(C)C(=O)CCc1nc(-c2ccc(C(C)(C)C)cc2)no1 | >57 | u
CCCCC[C@H](CC(=O)NO)C(=O)N[C@@H](C(=O)N1CCC[C@H]1CO)C(C)C | >57 | 4%
COc1ccc2nc(NC(=O)CCc3nc(-c4ccccc4F)no3)sc2c1 | >57 | 12%
Cc1ccc(S(=O)(=O)Nc2ccc(-c3nnc(SCC#N)n3C)cc2)cc1 | >57 | -8%

A second format for some results above.
Every second line gives: SmPrx2 inh | LT uptake inh
> CC(CN1CCCCC1)OC(=O)c1cc2ccccc2o1 (centres undefined)
    >57 | -1%
> CCCCC[C@H](CC(=O)NO)C(=O)N[C@@H](C(=O)N1CCC[C@H]1CO)C(C)C
    >57 | 4%
> O=C(O)C1CCCN1S(=O)(=O)c1ccc(Br)s1 (centres undefined) (tested in a mixture with another compound)
    >57 | -10%
> Cc1ccc(S(=O)(=O)Nc2ccc(-c3nnc(SCC#N)n3C)cc2)cc1
    >57 | -8%
> CC(C)(C)C(=O)Nc1ccccc1C(=O)NCc1ccco1
    x | 1%
> COc1ccc2nc(NC(=O)CCc3nc(-c4ccccc4F)no3)sc2c1
    >57 | 12%

These rows are one share of the data. The share of hits here may be higher or lower than overall.
